High-throughput results deposited in PubChem by National Center for Advancing Translational Sciences (NCATS).
Cruzain inh noDet: blocks cruzain activity in detergent-free assay; AID 1476; hit rate 2.3% among 200,000; Potency, µM, without a hit: max response, negative = inhibition, most hits filed as inhibitors; purified cruzain, Z-FR-AMC fluorescence, no detergent; P25779;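 note: plate controls were enzyme without inhibitor for no effect and buffer without enzyme for full effect; nearly all actives have a fitted effect of over 40% in size; top concentration of the series not given in the record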
Target sequence (P25779 123-467 limits assumed): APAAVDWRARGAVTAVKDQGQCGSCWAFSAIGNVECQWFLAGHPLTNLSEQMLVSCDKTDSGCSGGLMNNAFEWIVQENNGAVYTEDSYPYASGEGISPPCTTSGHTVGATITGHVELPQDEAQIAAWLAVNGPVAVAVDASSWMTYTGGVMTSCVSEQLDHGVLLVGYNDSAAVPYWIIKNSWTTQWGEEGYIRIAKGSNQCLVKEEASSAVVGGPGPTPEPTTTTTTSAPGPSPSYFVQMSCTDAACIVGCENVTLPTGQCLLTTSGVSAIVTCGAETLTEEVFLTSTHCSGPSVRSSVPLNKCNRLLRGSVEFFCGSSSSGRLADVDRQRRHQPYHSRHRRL
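Purified cruzain at 1.5 nM, pre-incubated 15 min with compound at room temperature in 100 mM sodium acetate pH 5.5, 5 mM DTT, 0.00005% Triton X-100. Reaction started with 2 uM Z-FR-AMC; AMC fluorescence increase over 60 s gives rate.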
StopGo reporter: lowers the luciferase signal of an FMDV 2A StopGo reporter; human cells with a luciferase reporter of 2A StopGo recoding; control for the full effect not named in the record; AID 1159524; Potency, µM (top dose mostly 57.9 µM), inactives show at the top dose signal change, negative = less light; hit rate 1.2% among 410,000; active = well fitted falling curve with a large enough effect; inconclusive = small, poorly fitted or top-dose-only effect; inactive = no such curve, though single readings can be large or run the other way; tested in HEK293T cells; note: % is set by controls: 0 for no effect and ±100 for the full control effect; nearly all actives have a fitted effect of over 45% in size; luciferase light after 4 h
Marburg entry inh: Marburg virus entry inhibition; Marburg virus pseudotyped entry inhibition, cell reporter; control for the full effect not named in the record; about a third of the inactives were read at about 46 µM; Potency, µM (series often up to 37.8 µM), inactives show at the highest dose activity change, negative = inhibition, most hits filed as inhibitors; hit rate 1.8% among 300,000; AID 540276; active = well fitted inhibition curve with a large enough effect; inconclusive = small, poorly fitted or top-dose-only effect, or effect the other way; inactive = flat fitted curve, though single readings scatter; tested in HEK293 cells; about a fifth of its hits are not listed in these tables; note: % is set by controls: 0 for no effect and ±100 for the full control effect; luciferase read-out
NS1 inh: influenza NS1 inhibition. S. cerevisiae slowed by influenza A NS1, growth recovery by OD600. Potency, µM (top dose mostly 46.1 µM), inactives show at the highest dose activity, positive = more growth. hit rate 0.4% among 270,000. AID 2326; active means well fitted rising curve with a large enough effect; inconclusive means small, poorly fitted or top-dose-only effect; inactive means no such curve, though single readings can be large or run the other way; note: nearly all actives have a fitted effect of over 50% in size
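A cell-based growth assay was used: compounds that relieve NS1-induced slow growth of budding yeast raise OD600. Assay medium was yeast nitrogen base with ammonium sulphate and -URA supplement, pH 6.0, with 2% galactose.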
RE007 growth inh: less growth of the S. pombe RE007 Vpr strain; S. pombe RE007 Vpr strain, BacTiter-Glo ATP luminescence, 24 h; control for the full effect not named in the record; hit rate 0.21% among 360,000; AID 651644; Potency, µM (highest dose often 92.2 µM), without a hit: at the top dose activity change, negative = less growth; active = well fitted falling curve with a large enough effect; inconclusive = small, poorly fitted or top-dose-only effect; inactive = no such curve, though single readings can be large or run the other way;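 note: % is set by controls: 0 for no effect and ±100 for the full control effect; nearly all actives have a fitted effect of over 50% in size; the assay follows cell death caused by Vpr and the record does not say whether a fall means rescue or toxicity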
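Fission yeast strain RE007, carrying one chromosomally integrated HIV-1 vpr copy, was seeded at OD 0.01 in PMG+AL medium with 23 nL pinned compound. After 24 h at 30 °C and 99% humidity, viability was read by BacTiter-Glo luminescence.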
SARS PLpro yeast: SARS-CoV PLP inhibition in yeast | S. cerevisiae expressing SARS-CoV PLpro, growth rescue; control for the full effect not named in the record | Potency, µM (top dose mostly 32.9 µM), for inactives: at the highest dose activity, positive = growth rescue | hit rate 0.19% among 330,000; active means well fitted rising curve with a large enough effect; inconclusive means small, poorly fitted or top-dose-only effect; inactive means no such curve, though single readings can be large or run the other way; note: 0% is about no effect; nearly all actives have a fitted effect of over 55% in size; growth read by luminescence after 48 h
Cruzain Triton: blocks cruzain activity in presence of Triton detergent. P25779. purified cruzain, Z-FR-AMC fluorescence, 0.01% Triton. Potency, µM, for inactives: max response, negative = inhibition, hits mostly inhibitors. hit rate 0.43% among 200,000;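 note: plate controls were neutral wells for no effect and buffer without enzyme for full effect; nearly all actives have a fitted effect of over 40% in size; top concentration of the series not given in the record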
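15 min RT preincubation of 1.5 nM cruzain with compound, then 2 uM Z-FR-AMC added; kinetic AMC fluorescence, 60 s delta. Triton X-100 0.01%, pH 5.5.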
LASV entry inh: inhibitors of Lassa virus binding or cell entry | Lassa virus pseudotype entry inhibition, cell reporter; control for the full effect not named in the record | Potency, µM (top dose mostly 37.9 µM), inactives show at the top dose activity change, negative = inhibition, usual class: inhibitors | hit rate 1.2% among 300,000 | AID 540256; active means well fitted inhibition curve with a large enough effect; inconclusive means small, poorly fitted or top-dose-only effect, or effect the other way; inactive means flat fitted curve, though single readings scatter; tested in HEK293 cells; note: % is set by controls: 0 for no effect and ±100 for the full control effect; nearly all actives have a fitted effect of over 50% in size; luciferase read-out
Numbers without * were called inactive; ? = inconclusive; . = not tested or not shown; & = joins results of further samples; [ ] = dose if it differs, or a comment. Unless noted, calls come from the whole dose curve; as a rule, active = well fitted curve in the direction sought with a large enough effect; inconclusive = small, poorly fitted or top-dose-only effect, or another doubt; inactive = no such curve, though single readings can be large; an effect the other way counts as inactive or inconclusive. Potency is the fitted concentration of half-maximal effect.

The line under a structure holds: Cruzain inh noDet	StopGo reporter	Marburg entry inh	NS1 inh	RE007 growth inh	SARS PLpro yeast	Cruzain Triton	LASV entry inh
O=[N+]([O-])c1cccc(/C=N\N2CCN(c3ccc(Cl)cc3)CC2)c1
  25µM*	-17%	-18%[46.1 µM]	7%	-14%	-2%	-1.9%	-8%
CNC(=O)CC1C(=O)N(c2ccc(Cl)cc2)C(=S)N1NC(=O)c1cccc(F)c1 (stereo not given)
  .	-1%	.	1%	2%	4%	.	.
CC(C)c1ccc(N(CC(=O)N2CCN(Cc3ccccc3)CC2)S(C)(=O)=O)cc1
  .	-26%	-26%[46.1 µM]	4%	5%	-1%	.	?
N#CCc1c(C#N)c(N)nc(N2CCN(S(=O)(=O)c3ccccc3F)CC2)c1C#N
  .	-27%	-23%[46.1 µM]	?	-12%	?	.	?
COCCN(CCOC)S(=O)(=O)c1ccc(C(=O)NC2CCN(Cc3ccccc3)CC2)cc1
  -4%	?	?	-5%	18%	-2%	4.2%	-26%
Cc1cccc(NC2=C(NC(=O)c3ccccc3)C(=O)c3ccccc3C2=O)c1
  -5%	0%	19%	-35%	-20%	-41%	-3.4%	-11%
CCC(=O)Nc1cccc(NC(=O)c2ccccc2Cl)c1
  .	0%	1%[46.1 µM]	.	1%	0%	.	-2%[46.1 µM]
Cc1cccc(N2CC(C(=O)Nc3ccc(S(=O)(=O)NCC4CCCO4)cc3)CC2=O)c1C (stereo not given)
  .	6%	11%[46.1 µM]	0%	7%	9%	.	.
COc1ccc(NC(=O)Cn2cnc3sc(C)c(S(=O)(=O)N4CCN(C)CC4)c3c2=O)cc1Cl
  4%	-16%	7%[46.1 µM]	.	.	.	0.5%	-20%[46.1 µM]
Fc1ccc(Sc2cc(Cl)c(-c3ccccc3)nn2)cc1
  -12%	0%	-14%	-51%	4%	-8%	-5.0%	9%
O=C1[C@@H]2Cc3c([nH]c4ccccc34)C(c3ccc([N+](=O)[O-])cc3)N2C(=O)CN1C1CC1 (stereo not given in full)
  .	-17%	.	7%	4%	-1%	.	.
CCN(CC)S(=O)(=O)c1ccc(C)c(NCC(=O)Nc2ccc(C#N)c(Cl)c2)c1
  -2%	-43%	?	3%	8%	-9%	-6.0%	?
CCCN(C(=O)CCc1nc(-c2ccccc2F)no1)c1ccc(CC)cc1
  3%	-29%	9%[46.1 µM]	.	.	.	-5.4%	-14%[46.1 µM]
Cc1ccc(CNC(=O)c2cc(=O)c3ccccc3o2)cc1
  .	-12%	-19%[46.1 µM]	-29%	3%	-2%	.	?
CC(C)(C)CC(=O)N1CCN(Cc2ccc3c(c2)OCO3)CC1
  .	-8%	2%	-7%	7%	-6%	.	-12%
CCOc1ccccc1C(=O)N(Cc1ccco1)C1CCS(=O)(=O)C1 (stereo not given)
  -2%	5%	?	1%	22%	2%	15%	1%
Cc1cccc(-n2c(/C=C\c3cccc(Br)c3)nc3ccccc3c2=O)c1
  2%	?	.	.	.	.	6.1%	12%[46.1 µM]
CC1(C)CC2CC(C)(CN2CC(O)c2ccccc2)C1 (stereo not given)
  .	-5%	.	0%	4%	1%	.	.
O=C(O)CC/C(=N\NC(=O)CNC(=O)c1ccc(F)cc1)c1ccccc1
  .	8%	.	3%	-17%	-1%	.	.
CCOC(=O)CCCCC(=O)c1[nH]c(=O)[nH]c1Cn1cnc2ccccc21
  -3%	13%	9%	-2%	-2%	3%	-0.1%	-5%
O=C(Cc1ccccc1)Nc1nc(-c2cccc([N+](=O)[O-])c2)cs1
  -26%	-4%	-12%	9%	-5%	14%	2.6%	-4%
Cc1ccc(CN2CCC(CNC(=O)Nc3cccc(C)c3C)C2)cc1 (stereo not given)
  0%	-17%	?	.	.	.	2.5%	-21%[46.1 µM]
Cc1nn(CCCC(=O)N2CCc3ccccc3C2)c(=O)c2cc3sccc3n12
  -14%	-5%	.	-47%	3%	-9%	-2.8%	.
Cc1nc(SC2CC(=O)N(c3ccccc3)C2=O)nc2c1CCCC2 (stereo not given)
  3%	-6%	-17%	-22%	-11%	1%	0.7%	8%
CCOc1ccc(Nc2nc(N)nc(CSC(=S)N3CCN(c4ccccc4)CC3)n2)cc1
  .	-23%	?	8%	1%	-2%	.	-16%
S=C(NCc1ccncc1)Nc1cc(Cl)cc(Cl)c1
  .	39%[activator]	.	-3%	-4%	1%	.	.
Cc1ccc(C(=O)COC(=O)CN2C(=O)C3C4CCC(C4)C3C2=O)cc1[N+](=O)[O-] (stereo not given)
  -11%	-10%	0%	-12%	1%	-3%	-7.1%	-4%
CCC(=O)Nc1nnc(S(=O)(=O)N(CC)c2ccc(Cl)cc2)s1
  .	3%	.	3%	-10%	0%	.	.
Cc1ccc([N+](=O)[O-])cc1NC(=O)CSc1n[nH]c(-c2cccnc2)n1
  .	1%	-17%[46.1 µM]	7%	-11%	-1%	.	-1%[46.1 µM]
COC(=O)CNC(=S)NC(=O)c1ccc(C(C)(C)C)cc1
  .	28%	-32%	5%	-28%	0%	.	-6%
CCOc1ccc2oc(C(=O)Nc3ccc(N4CCOCC4)cc3)c(C)c2c1
  ?	-15%	-4%[46.1 µM]	9%	18%	.	-2.9%	-1%
CNC(=O)N(O)C1N(/N=C/c2ccc(SC)cc2)C(=S)SC1(C)C (stereo not given)
  .	56%[activator]	.	5%	7%	0%	.	.
Cc1ccc(OCc2nnc(SCC(=O)c3cccc([N+](=O)[O-])c3)n2C)cc1
  2%	0%	-2%	6%	12%	1%	-0.1%	9%
Cc1ccc(OCC(=O)NNC(=O)CSC(=S)N2CCCC2)cc1
  .	0%	-9%	.	-20%	-3%	.	-6%
COc1ccc(-c2nc(CS(=O)CC(=O)NCCN3CCCCCC3)c(C)o2)cc1OC (stereo not given)
  .	2%	3%[46.1 µM]	3%	-16%	-2%	.	13%[46.1 µM]
CC/C(=N\NC(=O)c1nnn(-c2nonc2N)c1-c1cccc(OC)c1)c1ccc(C)cc1
  .	5%	.	5%	6%	6%	.	.
CCN1CCN(CCCNC(=O)C2CCCN(c3nc4c(C)cc(C)cc4s3)C2)CC1 (stereo not given)
  .	15%	.	-25%	-12%	-2%	.	.
CN(C)CCNC(=O)C1CCN(c2nc3ccccc3[nH]2)CC1
  21%	2%	.	.	.	.	0.3%	?
Cc1ccc(-c2nc(CSc3nnc(C)n4c3cc3occc34)c(C)o2)cc1
  -7%	-24%	.	.	.	.	0.7%	-5%[46.1 µM]
COc1cccc(CN(C)Cc2cc(=O)oc3c(C)c(C)ccc23)c1
  .	-27%	.	-16%	-8%	-1%	.	.
O=C(c1cccc2ccccc12)N1CCC(N2CCN(c3ccccc3)CC2)CC1
  1%	-18%	9%&9%	6%	2%	-2%	0.0%	-3%
O=C(COc1ccc(Cl)cc1)NCCNC(=O)c1ccccn1
  .	4%	16%[46.1 µM]	1%	7%	-2%	.	-1%[46.1 µM]
COc1ccccc1-c1cc2nc(C)c(CCC(=O)NCCc3ccc(SC)cc3)c(C)n2n1
  ?	?	-22%[46.1 µM]	.	.	.	-9.0%	-9%[46.1 µM]
O=C(CCSc1ccccc1)Nc1nc2c(s1)CCCC2
  4%	45%[activator]	?	0%	7%	-6%	-9.3%	-13%
CS(=O)(=O)n1nc(OC(=O)c2cccc3ccccc23)cc1N
  -8%	?	0%	5%	2%	-7%	-8.3%	?
C/C(=N/NC(=O)c1cc2ccccc2cc1O)C1C(=O)c2ccccc2C1=O
  13%	40%[activator]	0%	-74%	-1%	26%	-13%	-11%
COc1cccc(C2=NS(=O)(=O)N(C)C(C(=O)Nc3ccccc3SC)=C2)c1
  13µM*	-13%	3%[46.1 µM]	.	.	.	-1.2%	1%[46.1 µM]
CCc1nnc(NC(=O)CSc2nc(-c3ccc(OC)cc3)ns2)s1
  -18%	23%	-17%	-2%	11%	3%	5.4%	1%
O=C(c1ccc(COc2ccccc2Cl)o1)N1CCN(c2ccccc2)CC1
  26%	-16%	.	-85%	2%	-3%	-5.5%	.
COc1ccc2c(c1O)Cc1ccccc1C2=O
  -13%	14%	22%	-10%	-2%	2%	-7.0%	2%
CC(C)(C)N1C(=O)c2ccccc2NC(=O)N1Cc1ccccc1
  3%	-9%	-7%[46.1 µM]	-12%	2%	-5%	1.9%	15%
O=C(CCN1CCOCC1)Nc1c(-c2ccccc2)c2cc(Br)ccc2[nH]c1=O
  -7%	7%	-1%&-28%	-10%	8%	3%	-4.9%	6%
Cn1c(SC2=CS(=O)(=O)c3ccccc32)nc2ccccc21
  1%	28µM*	?	-6%	4%	-4%	-13%	?
Cc1ccc(N2C(=O)c3ccccc3C(C)(C)C2=O)cc1
  .	-6%	-14%	-42%	4%	-2%	.	8%
CCOc1ccc(CCNC(=O)C2CCCN(S(=O)(=O)N(C)c3ccc(F)cc3)C2)cc1 (stereo not given)
  19%	?	.	.	.	.	-3.4%	-12%[46.1 µM]
Cc1ccc(NC(=O)CN2C(=O)C3C4C=CC(C4)C3C2=O)cc1S(=O)(=O)N(C)C (stereo not given)
  0%	-5%	-7%	-4%	-13%	12%	1.3%	-7%
COc1ccc(-c2onc(C)c2C)cc1S(=O)(=O)N1CCc2ccccc21
  8%	-28%	.	.	.	.	4.2%	0%[46.1 µM]
COc1cccc(CNC(=O)C2CCC(CNS(=O)(=O)c3cccs3)CC2)c1 (stereo not given)
  6%	-3%	2%[46.1 µM]	.	.	.	-3.0%	-12%[46.1 µM]
COc1ccc(Cl)cc1NC(=O)c1nc(S(C)(=O)=O)ncc1N(Cc1ccc(C)cc1)Cc1ccco1
  ?	-8%	7%[46.1 µM]	.	.	.	-0.5%	15%[46.1 µM]
COc1cc(C2Nc3ccccc3C(=O)N2c2ccccc2)c(Br)cc1OCC(=O)O (stereo not given)
  13%	-13%	17%	9%	.	19%	-2.7%	?
Cc1ccc(-n2c(SCC(=O)Nc3ccc4c5c(cccc35)CC4)nc(O)c(C)c2=O)cc1
  ?	-13%	-23%	7.9µM*	14%	3%	-14%	2%
